# miR-21 FLuc – raises the signal of a miR-21 reporter; HeLa miR-21 FLuc reporter, luciferase, 48 h; Potency, µM (titrated, usually from 38.3 µM), for inactives: at the top dose reporter change, positive = more light; 340,000 tested, under 10 active; AID 2288; active = well fitted rising curve with a large enough effect; inconclusive = small, poorly fitted or top-dose-only effect; inactive = no such curve, though single readings can be large or run the other way;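 further: % of control where 0% means no effect; miR-21 action dims this reporter so a rising signal means less miR-21 action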
#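 Luminescence from a firefly luciferase reporter carrying a miR-21 binding site downstream, stably expressed under a CMV promoter in HeLa cells that make miR-21 endogenously, reports miRNA modulation after 48 h compound exposure up to approximately 40uM final.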
# * marks the source's active call; other numbers are inactive results; ? = inconclusive; [ ] = another dose, or the depositor's remark.
miR-21 FLuc	compound
0%	Cc1cc(C)cc(Oc2nc3c(c(=O)n(C)c(=O)n3C)n2Cc2ccc(F)cc2)c1
6%	Cc1oc(-c2cccc(Cl)c2)nc1CN1CCC(C(=O)NCCCN2CCN(c3ccccc3F)CC2)CC1
0%	CCc1ccc(NC(=O)C2CCN(c3nc(-c4ccc(OC)cc4)no3)CC2)cc1
-4%	Cc1cc2c(cc1S(=O)(=O)Nc1ccc(C(C)C)cc1)OCCN2C
-45%	COc1ccc(-c2nc3sc(CCNC(=O)c4cccc(C(F)(F)F)c4)c(C)n3n2)cc1
?	COc1ccc2c(CNCCc3ccc(SC)cc3)c(C(=O)O)n(Cc3ccc(F)cc3)c2c1
-5%	CCc1ccc(S(=O)(=O)NCCc2cn3ccsc3n2)cc1
-3%	Cc1cccc(N2CCN(C(=O)Cn3ncc4c5ccccc5n(C)c4c3=O)CC2)c1C
-18%	CCc1cccc(C)c1NC(=O)CCCn1nc(C)c2sc3ccccc3c2c1=O
7%	Cc1ccc(Cn2c(CN3CCC(C(=O)NCc4ccccc4C)CC3)cc3ccccc32)cc1
-9%	COc1ccc(OC)c2sc(N(Cc3cccnc3)C(=O)c3ccc(C(C)=O)cc3)nc12
-9%	CCC(=O)N1CCc2cc(S(=O)(=O)NCCC(=O)Nc3ccc(C)cc3)ccc21
10%	COc1ccc(-c2noc(CSc3nnc(Cc4ccccc4)n3-c3ccc(F)cc3)n2)cc1
8%	COc1ccc(OC)c(CCNC(=O)c2ccc3c(c2)c(C)c(C)n3Cc2ccccc2)c1
-7%	CCn1c(=O)n(-c2ccc3c(c2)OCO3)c2nc(-c3ccc(C(C)C)cc3)nc(C(N)=O)c21

miR-21 FLuc	compound
28%	CCOC(=O)c1ccc(NC(=O)Cn2cc(C(=O)c3cccs3)c3ccccc32)cc1
2%	COc1ccc(C2NC(=O)N(C)C3=C2C(=O)N(c2ccc(C)cc2)C3)cc1 (stereo not drawn)
-3%	Cc1ccc(C(=O)c2cn(CC(=O)NC3CCCCC3)c3nc(C)ccc3c2=O)cc1
22%	COc1ccc(CNC(=O)c2ccc3c(c2)CCN3S(=O)(=O)c2ccc(C)cc2)cc1
1%	COc1ccc(Cl)cc1NC(=O)CSC1=Nc2ccccc2C2=NC(CC(=O)NC3CCCCC3)C(=O)N12 (stereo not drawn)
-2%	CCCS(=O)(=O)N1CC(=O)N(c2cc(C)cc(C)c2)C(C)(C(=O)NC2CCCCCC2)C1 (stereo not drawn)
-6%	Cc1ccc(C)c(S(=O)(=O)c2nnn3c2nc(NC2CCCC2)c2sccc23)c1
28%	COc1ccccc1-c1cc(C(=O)Nc2cc(OC)c(OC)c(OC)c2)no1
-26%	COc1ccccc1CNc1nc(-c2ccco2)nn1C(=O)c1cc(OC)c(OC)c(OC)c1
8%	Cc1ccc(NC(=O)C(Cc2c[nH]c3ccccc23)NC(=O)OCC(C)C)cc1 (stereo not drawn)
-12%	COc1ccccc1/C=C/c1nc(C#N)c(NCCc2ccccc2)o1
-1%	O=C(Nc1ccccc1C(=O)OCc1cc(=O)n2nc(C3CC3)sc2n1)c1cccc(Cl)c1
-3%	O=C(COc1ccc2oc3c(c2c1)CCCC3)Nc1ccc(Br)cc1
6%	Cc1ccc(NC(=O)C2CCCN(c3nc4ccccc4s3)C2)c(C)c1 (stereo not drawn)
-1%	CCOCCCn1c(=N)c(C(=O)NCc2ccccc2)cc2c(=O)n3ccccc3nc21

# Fetched by compound from above (five):
miR-21 FLuc	compound
-9%	CCC(=O)N1CCc2cc(S(=O)(=O)NCCC(=O)Nc3ccc(C)cc3)ccc21
7%	Cc1ccc(Cn2c(CN3CCC(C(=O)NCc4ccccc4C)CC3)cc3ccccc32)cc1
-7%	CCn1c(=O)n(-c2ccc3c(c2)OCO3)c2nc(-c3ccc(C(C)C)cc3)nc(C(N)=O)c21
-5%	CCc1ccc(S(=O)(=O)NCCc2cn3ccsc3n2)cc1
6%	Cc1ccc(NC(=O)C2CCCN(c3nc4ccccc4s3)C2)c(C)c1 (stereo not drawn)

# Additional records follow.
miR-21 FLuc	compound
-7%	COc1cc(NC(=O)CSc2nc3nc(C)c(Cc4ccc(C)cc4)c(C)n3n2)cc(OC)c1
3%	CC(=O)Nc1ccc(NC(=O)C(NC(=O)C2CCC(C)CC2)C(C)C)cc1 (stereo not drawn)
-2%	COc1ccc(-c2cccc(NS(=O)(=O)c3ccc(C)s3)c2)nn1
-4%	Cc1nn(C)c2c1c(-c1ccccc1)cc(=O)n2C(C)C(=O)NCCc1ccc(Cl)cc1 (stereo not drawn)
5%	CCOC(=O)c1ccccc1NC(=O)CSc1nc2cn(CC)nc2c(=O)n1Cc1ccc(Cl)cc1
-35%	Cc1ccc(NC(=O)c2ncoc2-c2ccco2)cc1Cl
0%	CCOc1cccc(C(=O)Nc2cc(C)c(O)c(-c3nc4ncccc4o3)c2)c1
1%	CCOC(=O)c1nnn(CC(=O)Nc2cc(C)cc(C)c2)c1C(=O)OCC
-3%	COC(=O)c1ccccc1NC(=O)c1cnn(-c2ccc(F)cc2)c1-n1cccc1
?	CCCS(=O)(=O)c1ncc(Cl)c(C(=O)Nc2scc(-c3ccccc3)c2C(=O)OCC)n1
22%	CC(CNC(=O)C1CCN(C(=O)N2CCOc3ccc(Cl)cc32)CC1)c1ccccc1 (stereo not drawn)
-16%	CCOCCCN(C(=O)Nc1ccc(Cl)cc1)C1CCN(C(C)=O)CC1
?	CCc1ccc(NC(=O)CN2C(=O)C(c3ccc(Cl)cc3)=NC23CCCCC3)cc1
-17%	CCOC(=O)CSc1nc2ccc(NC(=O)c3ccccc3F)cc2s1
-30%	Cc1c(NC(=O)c2ccccc2)cc(C(C)C)c(O)c1S(=O)(=O)c1ccc(Cl)cc1

miR-21 FLuc	compound
-20%	CC(=O)Nc1c(C(=O)Nc2ccccc2F)oc2ccccc12
4%	COc1ccccc1N1CCN(CC(O)COc2cc(C)cc(C)c2)CC1 (stereo not drawn)
0%	Cc1c(Cl)cccc1NC(=O)C(CCS(C)(=O)=O)N1Cc2ccccc2C1=O (stereo not drawn)
0%	CC(C)CCN(Cc1ccco1)C(=O)c1cc2c(Cl)nc3ccccc3c2s1
0%	COc1cccc(-n2c(SCC(=O)Nc3cccc(Cl)c3)nc3c(oc4ccccc43)c2=O)c1
?	Cc1ccc(NC(=O)CCn2nc(C)c(S(=O)(=O)N3CCCCC3)c2C)cc1Cl
1%	O=S(=O)(c1ccc2ccccc2c1)n1nc(-c2ccco2)nc1NCc1ccc(F)cc1
-1%	CCc1ccc(NC(=O)c2sc3nc4c(cc3c2N)CN(CC)CC4)cc1
0%	Cn1cc(C(=O)O)c(=O)c2cc(S(=O)(=O)N3CCOCC3)ccc21
-20%	CN(C)c1ccc(CNC(=O)CCn2c(=O)c3cccn3c3ccc(F)cc32)cc1
21%	COc1ccc(-c2nc3sc(CCNC(=O)C(C)(C)C)c(C)n3n2)cc1
2%	CCCOc1ccc(NC(=O)CC2C(=O)N(c3ccccc3)C(=O)N2Cc2ccco2)cc1 (stereo not drawn)
-2%	Cc1ccc(S(N)(=O)=O)cc1NC(=O)c1c(-c2c(Cl)cccc2Cl)noc1C
4%	Cc1ccccc1CNC(=O)C1CCN(S(=O)(=O)Cc2ccccc2)CC1
-11%	Cc1ccccc1NC(=O)CSc1nc2ccc(NC(=O)CCc3ccccc3)cc2s1

miR-21 FLuc	compound
11%	COc1ccc(C)cc1NC(=O)N1CCN(c2cc(-c3noc(C)n3)ccc2C)CC1
-4%	CCOCCCN1C(=O)c2ccccc2CC1(C)C(=O)NC1CCCCC1 (stereo not drawn)
-15%	O=C(CSc1n[nH]c(-c2ccc(F)cc2)n1)NCc1ccccc1Cl
-27%	Cc1ccc(NC(=O)Cn2c(=O)n(CCc3ccccc3)c(=O)c3sc4ccccc4c32)cc1C
1%	CN(C1CCCCC1)S(=O)(=O)c1ccc2c(c1)c(=O)c(C(=O)NCc1ccc(Cl)cc1)cn2C
-1%	Cc1coc2c1c(C)cc1oc(=O)c(CC(=O)NCCc3ccc(Cl)cc3)c(C)c12
-1%	COc1cc(C2c3c(oc4ccc(F)cc4c3=O)C(=O)N2c2nc(C)c(C)s2)cc(OC)c1OC (stereo not drawn)
-3%	Cc1ccccc1OC(=O)CSc1nnc(-c2ccc(F)cc2)o1
0%	Cc1cccc(NS(=O)(=O)c2ccc(NC(=O)N3CCCC3)cc2)c1
8%	COc1cc2c(cc1OC)C(COc1ccccc1OC)N(C(=O)c1ccc(S(=O)(=O)N3CCCC3)cc1)CC2 (stereo not drawn)
12%	COc1ccc(-c2nnc(C3CCN(S(=O)(=O)c4cccc(Cl)c4)CC3)o2)cc1
28%	CC(C)(C)OC(=O)N1CCC(c2c(C(=O)Nc3cccc(C(F)(F)F)c3)cnn2-c2ccc(F)cc2F)CC1
0%	CC1CCN(c2nc3ccccc3nc2C(F)(F)F)CC1
17%	CCOc1ccc(OCC)c(NC(=O)c2cnn(-c3ccc(F)cc3)c2C2CCN(C(=O)OC(C)(C)C)CC2)c1
0%	COc1ccc(-c2ccc(NS(=O)(=O)c3ccc(F)c(C(F)(F)F)c3)cc2)nn1

miR-21 FLuc	compound
-1%[7.66 µM]	N#Cc1ccc2c(c1)C[C@]1(CCCCN3C(=O)c4ccccc4C3=O)Oc3c(c(=O)oc4ccccc34)C2O1
11%	Cc1cc2n(n1)C(c1cc(C(C)(C)C)c(O)cc1O)Nc1ccccc1-2 (stereo not drawn)
-16%	COc1cc(OC)c(NC(=O)Cn2nc(C)n3cccc3c2=O)cc1Cl
-19%	COc1cc(OC)cc(C(=O)Nc2nc(-c3nnn(-c4ccc(C)cc4)c3C)ns2)c1
7%	COc1ccc(CNC(=O)Cc2c(C)c3c(cc(C)c4c(C)c(C)oc43)oc2=O)cc1
?	O=C(Nc1cccs1)Nc1cc(C(F)(F)F)ccc1Cl
-13%	CCN(CC)C(=O)Cn1c(=O)cc(C)c2c(C)nn(C)c21
13%	Cc1oc2ccc(O)c(CN3CCCCC3C)c2c1C(=O)Nc1ccccc1 (stereo not drawn)
-7%	O=C(CN1C(=O)COc2ccc(S(=O)(=O)N3CCOCC3)cc21)Nc1ccc(F)c(Cl)c1
9%	COc1cccc(NC(=O)c2ccc(-c3nc(COc4ccccc4)c(C)o3)cc2)c1
-51%	CCCc1nnc(NC(=O)Nc2ccccc2Cl)s1
-1%	COc1ccc(OC)c(/C=C(\C#N)c2nc3ccccc3c(=O)[nH]2)c1
-2%	CCOc1ccc(C2CC(c3c(O)n(C4CCCCC4)c(=O)[nH]c3=O)=Nc3ccccc3S2)cc1 (stereo not drawn)
?	COc1ccc(CCNC(=O)c2nc(SCc3ccc(C)cc3)ncc2Cl)cc1OC
-7%	CCOc1ccc(CCNC(=O)Cn2nc(CC)n3c(cc4c(OC)cccc43)c2=O)cc1OCC

miR-21 FLuc	compound
1%	Cc1cc(C)cc(NC(=O)Cn2c(=O)n(CCC(C)C)c(=O)c3cccnc32)c1
0%	COc1ccc(N2CCN(C(c3ccccc3)c3nnc(-c4ccccc4Cl)o3)CC2)cc1 (stereo not drawn)
19%	Cc1ccccc1NCc1cccn1-c1nnc(N2CCOCC2)s1
6%	Cc1oc2ncnc(N3CCOCC3)c2c1C(=O)Nc1ccc(Br)cc1F
12%	Cc1ccc(CNC(=O)c2nc(S(=O)(=O)Cc3ccc(C)cc3)ncc2Cl)cc1
-4%	COc1ccc2nc(SCC(=O)c3c(C)[nH]c4ccccc34)nc(C)c2c1
15%	Cc1ccc(S(=O)(=O)C(CNC(=O)C(=O)NCCc2ccc(F)cc2)c2cccs2)cc1 (stereo not drawn)
-2%	COc1ccc(CNC(=O)Cn2c(=O)cc(-c3ccccc3)c3c(C)nn(C)c32)cc1
13%	CCc1ccc(S(=O)(=O)c2nnn(-c3ccc(F)cc3)c2N)cc1
6%	COc1cccc(-c2cnc(NCc3ccccc3Cl)n2C)c1
-6%	Cc1nn(-c2ccc3nncn3n2)c(C)c1CCC(=O)Nc1ccc(OC(F)(F)F)cc1
1%	Cc1cc(NC(=O)c2ccc(-c3ccc(Br)cc3)o2)cc(-c2nc3ncccc3o2)c1O
-1%	COc1ccc(CNC(=O)CSc2ncc(S(=O)(=O)c3ccc(C)c(Cl)c3)c(=O)[nH]2)cc1
29%	CCCCC1CCC(C(=O)N2CC(=O)Nc3ccc(C)cc3C2c2ccc(F)cc2)CC1 (stereo not drawn)
?	O=C(NCc1ccccc1Cl)c1cc2cccc3c2n1CCS3

miR-21 FLuc	compound
2%	COc1ccc(CCNC(=O)c2cnc3sc(N4CCOCC4)nn3c2=O)cc1OC
-5%	COc1ccc(C2C(C(=O)Nc3ccccc3OC)=C(C)Nc3c(C(=O)Nc4ccccc4)cnn32)c(OC)c1 (stereo not drawn)
?	COC(=O)c1ccccc1NC(=O)C1=C(C)C(=O)OC12CCCCCC2
-8%	CCCCc1ccc(C(=O)c2c(N)c(C(=O)Nc3cccc(OC)c3)c3ccccn23)cc1
-25%	COc1cccc2cc(-c3nnc(-c4ccc(Cl)cc4)o3)c(=O)oc12
-10%	COc1ccc(C)cc1NC(=O)CCc1c(C)nn(-c2ccc(N3CCOCC3)nn2)c1C
-8%	CCC(C(=O)Nc1cccc(-c2nc3cccnc3s2)c1C)c1ccccc1 (stereo not drawn)
2%	COc1ccccc1N1CCN(C(=O)c2c(C)oc3ncn(C)c(=O)c23)CC1
21%	CC(=O)N1c2c(cc(Br)cc2S(=O)(=O)N2CCN(c3ccccc3)CC2)CC1C (stereo not drawn)
-5%	CSc1ncc(Cl)c(C(=O)N(Cc2ccccc2Cl)C2CCS(=O)(=O)C2)n1 (stereo not drawn)

# Shown as labelled records: part of the list above.
CCC(C(=O)Nc1cccc(-c2nc3cccnc3s2)c1C)c1ccccc1 (stereo not drawn)
  miR-21 FLuc: -8%
COc1ccccc1N1CCN(C(=O)c2c(C)oc3ncn(C)c(=O)c23)CC1
  miR-21 FLuc: 2%
CC(=O)N1c2c(cc(Br)cc2S(=O)(=O)N2CCN(c3ccccc3)CC2)CC1C (stereo not drawn)
  miR-21 FLuc: 21%
CSc1ncc(Cl)c(C(=O)N(Cc2ccccc2Cl)C2CCS(=O)(=O)C2)n1 (stereo not drawn)
  miR-21 FLuc: -5%

# These rows are one share of the data. The share of hits here may be higher or lower than overall.
